Compound activity from PubChem.
VDR inhibitor: Inhibitors of the vitamin D receptor (VDR): qHTS. Vitamin D3 receptor (Homo sapiens), P11473. VDR-SRC2-3 peptide fluorescence polarization, 2 h. Potency, µM, for the others: max response, negative = inhibition, usual class: inhibitors. 0.93% of 400,000 active; active = well fitted inhibition curve with a large enough effect; inconclusive = small, poorly fitted or top-dose-only effect, or another doubt; inactive = no such curve, though single readings can be large or run the other way; note: series mostly up to about 120 µM
Target sequence (P11473 whole entry, looked up): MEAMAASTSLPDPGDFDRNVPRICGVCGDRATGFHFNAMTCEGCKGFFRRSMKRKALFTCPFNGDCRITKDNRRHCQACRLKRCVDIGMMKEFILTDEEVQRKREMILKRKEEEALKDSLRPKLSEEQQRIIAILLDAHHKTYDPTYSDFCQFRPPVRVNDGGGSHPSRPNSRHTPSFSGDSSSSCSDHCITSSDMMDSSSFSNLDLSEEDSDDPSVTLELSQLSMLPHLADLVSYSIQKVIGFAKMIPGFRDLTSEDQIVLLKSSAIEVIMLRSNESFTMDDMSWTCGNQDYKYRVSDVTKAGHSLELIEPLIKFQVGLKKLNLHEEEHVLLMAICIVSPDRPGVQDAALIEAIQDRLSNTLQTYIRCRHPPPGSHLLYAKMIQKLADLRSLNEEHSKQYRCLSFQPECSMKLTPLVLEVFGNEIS
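Two reagent solutions held at 4 deg C in the dark were dispensed, compounds pinned at 23 nl, and the mixture incubated 2 h at room temperature. Read-out: fluorescence polarization of VDR–SRC2-3 peptide binding.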
* = called active by the depositor; ? = inconclusive; & = joins results of further samples. % is set by controls: 0 for no effect and ±100 for the full control effect; potency is the fitted concentration of half-maximal effect. Some of the compounds tested, so the mix of outcomes need not match the whole.

VDR inhibitor | Structure
1% | CCCOc1ccc(C2c3c(oc4ccccc4c3=O)C(=O)N2CCCN2CCOCC2)cc1 (stereo unspecified)
-5% | CCN(c1ccccc1)S(=O)(=O)c1ccc(C(=O)Nc2ncccc2C)cc1
22% | CCCCCn1c(SCC(=O)CC(=O)OCC)nc2cc(C(=O)N3CCC(C(N)=O)CC3)ccc2c1=O
12% | O=S(=O)(Cc1ccccc1)C1CCCCC1O (stereo unspecified)
14% | O=C(NN=Cc1ccccc1Cl)c1ccc([N+](=O)[O-])cc1
11% | Cc1occc1C(=O)NNC(=O)c1cccc(F)c1
-11% | O=C(CNCCO)N1N=C(c2cccs2)CC1c1cccs1 (stereo unspecified)
-13% | C/C(=N\NC(=O)c1ccccc1F)c1cccc(NC(=O)c2ccc(C)cc2)c1
4% | COc1ccccc1OCc1ccc(C(=O)n2nc(C)c(Cl)c2C)o1
7% | COc1ccc(NC2CCCN(C(=O)CSc3ccncc3)C2)cc1 (stereo unspecified)
-10% | COc1ccc(C(=O)Nc2ccc3c(c2)nc2n3CCSC2)cc1
9% | Cc1ccc(C)c(-c2[nH]c3c(c2-c2c(-n4cccc4)n(C)c(=O)n(C)c2=O)c(=O)n(C)c(=O)n3C)c1
0% | Cc1ccc(C(C(=O)NCc2ccc(F)cc2)N(CCCO)C(=O)C2COc3ccccc3O2)o1 (stereo unspecified)
-9%&-9% | CCC(=Nc1ccc(Cc2ccncc2)cc1)c1c(O)n(C)c(=O)n(C)c1=O
5% | CCS(=O)(=O)c1ncc(N(Cc2ccco2)Cc2sccc2C)c(C(=O)Nc2cc(C)ccc2C)n1
-20% | O=C(Nc1ccc(F)cc1)C1CCCN(S(=O)(=O)c2cccc3nonc23)C1 (stereo unspecified)
12% | CN(C)C(=O)c1cccn1-c1ncc(C(F)(F)F)cc1Cl
50µM* | O=C(O)CC(C(=O)O)N1C(=O)/C(=C/c2ccc(-c3nc4ccccc4s3)o2)SC1=S (stereo unspecified)
-3%&11% | O=C(Nc1nnc(S(=O)(=O)N2CCOCC2)s1)c1cccc(F)c1
-2% | COc1ccc(Cl)cc1NC(=O)CSC1=Nc2ccccc2C2=NC(CC(=O)NCc3ccc4c(c3)OCO4)C(=O)N12 (stereo unspecified)

Laid out differently: 2 of the compounds above
| SMILES | VDR inhibitor |
| --- | --- |
| C/C(=N\NC(=O)c1ccccc1F)c1cccc(NC(=O)c2ccc(C)cc2)c1 | -13% |
| COc1ccccc1OCc1ccc(C(=O)n2nc(C)c(Cl)c2C)o1 | 4% |

(continued)
VDR inhibitor | Structure
? | COc1cccc2cc(C(=O)C3=C(O)C(=O)N(CCN4CCOCC4)C3c3cccc(Cl)c3)oc12 (stereo unspecified)
-7% | COc1ccc(OC)c(C2=NOC(C(=O)Nc3cc(C)nn3-c3ccccc3)C2)c1 (stereo unspecified)
13% | O=C(COC(=O)c1cccc([N+](=O)[O-])c1)NCc1ccc2c(c1)OCO2
21% | C/C(CC(=O)N1CCN(C=O)CC1)=N\NC(=O)c1ccc(Br)cc1
8% | O=C(CSc1nnc2c(n1)[nH]c1ccccc12)Nc1ccc(S(=O)(=O)Nc2ncccn2)cc1
-19% | O=C(NCC1CCCCC1)c1cc([N+](=O)[O-])ccc1Cl
-8% | Cc1cccc(C)c1NC(=O)C(c1ccccc1)N1CCOCC1 (stereo unspecified)
-21% | CCN=C1S/C(=C\c2ccc(-c3cccc(C(=O)O)c3)o2)C(=O)N1CC
4% | CCc1ccc2[nH]c(=O)c(CN(CCN(CC)CC)C(=O)NC3CCCCC3)cc2c1
8% | Cc1cc(NC(=O)NN2CCOCC2)nn1-c1c(Cl)cccc1Cl
4% | Cc1cc(Cl)ccc1NC(=O)CN1C(=O)NC2(CCCC2)C1=O
6% | O=C(Nc1ccc2c(c1)OCO2)C(c1ccccc1)N1CCCCC1 (stereo unspecified)
-3% | CCCCC1(C)NC(=O)N(CC(=O)Nc2ccc(Cl)cc2C)C1=O (stereo unspecified)
7% | COc1ccccc1CNS(=O)(=O)N(C)C
1% | O=C(C[n+]1ccc(Cc2ccccc2)cc1)Nc1ccccc1
1% | Cc1nnc2ccc(N3CCCC3)nn12
1% | O=C1CCc2cc(Br)ccc2O1
-11% | CCOc1ccc(NC(=O)N(Cc2c[nH]c3ccccc23)C2CCCCCC2)cc1
3% | CCCn1nc(-c2ccccc2)c2nc3ccccc3nc21
-4% | CC(C)(C)n1cnc2cc(NCc3ccccc3O)ccc21

Next part (seven carried over from the part before).
VDR inhibitor | Structure
7% | COc1ccccc1CNS(=O)(=O)N(C)C
1% | O=C(C[n+]1ccc(Cc2ccccc2)cc1)Nc1ccccc1
1% | Cc1nnc2ccc(N3CCCC3)nn12
1% | O=C1CCc2cc(Br)ccc2O1
-11% | CCOc1ccc(NC(=O)N(Cc2c[nH]c3ccccc23)C2CCCCCC2)cc1
3% | CCCn1nc(-c2ccccc2)c2nc3ccccc3nc21
-4% | CC(C)(C)n1cnc2cc(NCc3ccccc3O)ccc21
6% | COc1cccc2cc(C(C)N(CCCN3CCOCC3)C(=S)Nc3ccc(C)c(C)c3)oc12 (stereo unspecified)
-9% | COc1ccc(OC)c(-c2cc(C(=O)Nc3c(C)nn(Cc4ccccc4)c3C)no2)c1
7% | CCOC(=O)/C(C(N)=NC)=C(\O)c1ccccc1
-14% | O=C(O)c1ccc(-n2cc(-c3cc4ccccc4oc3=O)[nH]c2=S)cc1
-10% | Cc1oc(C(C)(C)C)cc1C(=O)Nc1cccc(/C=C\C(=O)O)c1
-12% | CC(C)Oc1ccc2ccccc2c1CNC[C@H]1O[C@@H](n2cnc(C(N)=O)n2)[C@H](O)[C@@H]1O
-20% | Cc1cc(C)n(CC(=O)NC2C(=O)N3C(C(=O)O)=C(CSc4nnc(C)s4)CSC23)n1 (stereo unspecified)
-22% | O=C(CC1C[C@H](C(=O)N2CCOCC2)[C@@]2(CCC3CCCC3)c3[nH]c4ccccc4c3CCN2C1=O)NCC12CC3CC(CC(C3)C1)C2 (stereo partly specified)
-12% | COc1cc(C(=O)OCC(=O)Nc2cc(S(=O)(=O)N3CCOCC3)ccc2C)ccc1OCC(C)C
-1% | Cc1ccc2cc(/C=N/NC(=O)CN3CCOCC3)c(Cl)nc2c1
-22% | Cc1ccc(NC(=S)N2CCN(S(=O)(=O)c3ccc(C)cc3)CC2)cc1
-13% | Cc1ccc(C)c(NC(=O)CN(C)C(=O)c2cccc(S(=O)(=O)N3CCCC3)c2)c1
2% | COC(=O)C1=C(C)N(c2ccccc2)/C(=C/c2cccs2)C1=O
0% | CCOC(=O)C(=O)NNc1ccccc1C
-15% | COc1ccc(CSc2nc(C)[nH]c2[N+](=O)[O-])cc1[N+](=O)[O-]
9% | COc1ccccc1C(=O)Nc1nnc(SCC(=O)NCc2ccco2)s1
17% | Cc1cc(C(=O)NNC(=O)c2sccc2C)c(C)o1
6% | O=C(NC(=S)Nc1cccc(O)c1)c1cncc(Br)c1
19% | O=C(NCC(=O)N1CCN(c2ccccc2O)CC1)c1ccc2ccccc2c1
-7% | COc1ccc(NC(=O)c2ccco2)cc1NC(=O)COc1cccc(C)c1C

Ordered by length of the SMILES (low to high): four of the compounds above.
VDR inhibitor | Structure
7% | COc1ccccc1CNS(=O)(=O)N(C)C
-4% | CC(C)(C)n1cnc2cc(NCc3ccccc3O)ccc21
-9% | COc1ccc(OC)c(-c2cc(C(=O)Nc3c(C)nn(Cc4ccccc4)c3C)no2)c1
-2% | COc1ccc(Cl)cc1NC(=O)CSC1=Nc2ccccc2C2=NC(CC(=O)NCc3ccc4c(c3)OCO4)C(=O)N12 (stereo unspecified)

Next section
VDR inhibitor | Structure
7% | O=c1[nH]c(C2CCN(S(=O)(=O)c3ccccc3C(F)(F)F)CC2)nc2c1nnn2Cc1ccccc1
-24% | CC(OC(=O)C1=COCCO1)C(=O)NC1CCCCC1C (stereo unspecified)
-11% | CC(c1ccccc1)N1CC(C(=O)N2CCN(c3ccccc3)CC2)CC1=O (stereo unspecified)
-12% | Cc1[nH]c2ccc(C(=O)N3CCN(c4ccccc4F)CC3)cc2c1C
-5% | C=CCOc1ccc(C2C(C#N)=C(N)N(N(C)C)C3=C2C(=O)CCC3)cc1 (stereo unspecified)
-11% | O=S(=O)(c1ccc2c(c1)OCCO2)N1CCN(S(=O)(=O)c2c(F)cc(F)cc2F)CC1
-19% | COc1ccccc1NC(=O)c1ccc(-c2ccccc2[N+](=O)[O-])o1
4% | CCOc1ccc(NC(=O)c2ncoc2-c2ccco2)cc1
14µM* | COC1=C(N)C(=O)c2nc(-c3nc(C(=O)O)c(C)c(-c4ccc(OC)c(OC)c4O)c3N)ccc2C1=O
5% | Cc1ccc2c(c1)N(CC(=O)NCCCN1CCCCC1)C(=O)CO2
-17% | CCCOC(=O)c1cc(=O)[nH]c2ccccc12
7% | Cc1ccc(NS(=O)(=O)c2c(C)[nH]c(C)c2C(=O)N2CCCC2)cc1Cl
-7% | COc1cc(NC(=O)c2nccn2C)cc(C(=O)Nc2cccc(C(F)(F)F)c2)c1
-10% | Cc1ccn(C(=O)c2cc3c(C)nn(-c4ccccc4)c3s2)n1
22% | CCCn1c(SCC(=O)NCc2ccc3c(c2)OCO3)n[nH]c1=O
-6% | O=[N+]([O-])c1cc(Cl)cc(C2=NCCN2)c1
2% | O=C(N/N=C/C=C\c1ccccc1[N+](=O)[O-])c1cccs1
-10% | CCSC1=N/C(=C\c2cccnc2)C(=O)N1c1ccccc1
1% | O=C(CSc1nnc(-c2ccccc2F)n1C1CC1)NCc1ccco1
-4% | CC(=O)N(Cc1c(C#N)c2ccccc2n1C)c1ccccc1
-14% | O=S(=O)(c1ccc2c(c1)OCCO2)N1CCN(CCc2ccccc2)CC1
-13% | CN(Cc1ccc(F)cc1)C(=O)c1cc(COc2ccc(F)cc2F)on1
-4% | O=C(CN(C(=O)CCC(=O)Nc1nccs1)c1cccc(F)c1)NCc1ccc2c(c1)OCO2
-2% | COc1cnn(-c2cc(Oc3ccc(C)cc3)ncn2)c(=O)c1Cl
-13% | CC1=CC(C)(C)N(C(=O)CSc2ncn[nH]2)c2ccccc21
0% | COc1ccc(Br)cc1CN(C)CC(=O)Nc1cccc(S(=O)(=O)N2CCCC2)c1
-11% | COCCCN=C1NN=C(c2cc(C)n(Cc3ccco3)c2C)CS1
-9% | COC(=O)[C@@H](NC(=O)c1ccccc1)[C@@H](C)O
-8% | O=C(CSc1nccc(=O)[nH]1)NC1CCCc2ccccc21 (stereo unspecified)
-9% | CC(=O)c1ccc(NC(=O)CN2CCN(c3ccccc3)CC2)cc1
3% | Cc1ccc(NC(=O)NNS(=O)(=O)c2ccc(Br)cc2)cc1
5% | CCSC1=NCCN1C(=O)c1ccc(S(=O)(=O)N(C)C)cc1
-10% | O=C(O)c1cccnc1SC1CC(=O)N(Cc2ccccc2)C1=O (stereo unspecified)
7% | O=C1CC(c2ccccc2)c2cccc(F)c21 (stereo unspecified)
-8% | Cn1c(=O)n(C)c2cc(NS(=O)(=O)c3ccccc3[N+](=O)[O-])ccc21
-5% | CCC1=Nc2cc(C(=O)NC3CCCC3)ccc2Sc2ccc(Br)cc21
7% | CCc1nc(C)cn1S(=O)(=O)c1ccc2c(c1)OCCO2
3% | COc1ccc(-c2nc(CS(=O)(=O)CC(=O)NCCCc3ccccc3)c(C)o2)cc1
-12% | COc1ccc(C)cc1S(=O)(=O)N1CCN(c2cccc(Cl)c2)CC1
-7% | OCCC1CN(Cc2cccn2-c2nccs2)CCN1CCc1ccccc1 (stereo unspecified)
-14% | COc1ccc(CNC(=O)c2cc(C)nc3ccccc23)cc1OC
-16% | COC(=O)C1=C(C)N(c2ccc(OC)cc2)C(C)=C(C(=O)OC)C1c1ccccc1
-9% | Cc1ccc(C(=O)CSc2nnc(-c3ccccc3N)n2C)cc1
7% | COc1ccc(/C=N/N=C2\CC3CCC2(C)C3(C)C)cc1O (stereo unspecified)
-8% | Oc1c(Br)cc(Br)cc1CNc1ccccn1
-20% | N/C(=N\OC(=O)c1cccs1)C1(c2ccc(Cl)cc2Cl)CC1
6% | Cc1cccc(-c2nnc(SCC(=O)Nc3nc4c(s3)CCCC4)n2C)c1
5% | Cc1ccc(-n2c(C)cc(C)c(C#N)c2=O)cc1
4% | CNC(=O)c1ccc(Nc2nnc(-c3ccc(C)c(S(=O)(=O)NC(C)(C)C)c3)c3ccccc23)cc1
3% | COc1ccc2oc(C(=O)NCCc3ccccc3)c(C)c2c1
-21% | CCC(C(=O)OCC(=O)NC(=O)NC(C)(C)C)c1ccccc1 (stereo unspecified)
-2% | O=C(CS(=O)(=O)c1c[nH]c2ccccc12)N1CCCCC1
? | CC(C)CCNC(=O)C(c1ccncc1)N(C(=O)Cn1nnc(-c2ccc(F)cc2)n1)c1ccccc1F (stereo unspecified)
3% | COc1ccc(C2CC(=O)CC(=O)C2n2cncn2)cc1 (stereo unspecified)
9% | Cc1ccc(Sc2ncccc2C(=O)NC2CCCCCC2)cc1C
8% | O=C(Nc1ccc2[nH]c(=O)[nH]c2c1)c1cccc([N+](=O)[O-])c1
-1% | Cc1ccc2nsnc2c1S(=O)(=O)N1CCOCC1
5% | Cc1ccc2nc(COc3cccc(NC(=O)COc4ccc(F)cc4)c3)cc(=O)n2c1
-1% | O=S(=O)(c1ccc(Br)cc1)c1nc(-c2ccco2)oc1NCC1CCCO1 (stereo unspecified)
